Assay outcomes from PubChem.
D2 ag: human D2 receptor agonism in beta-arrestin assay. P14416. DiscoveRx PathHunter D2 beta-arrestin, luminescence, 90 min; 100% = 57 uM dopamine signal. activation, % (test concentration not listed). 0.084% of 360,000 active; in the data active = activation above about 40%; inconclusive = about 15% to 40%; inactive = below about 15%; note: compound concentration not given in the record; the text of the record calls up to 30% inactive
Target sequence (P14416 whole entry, looked up): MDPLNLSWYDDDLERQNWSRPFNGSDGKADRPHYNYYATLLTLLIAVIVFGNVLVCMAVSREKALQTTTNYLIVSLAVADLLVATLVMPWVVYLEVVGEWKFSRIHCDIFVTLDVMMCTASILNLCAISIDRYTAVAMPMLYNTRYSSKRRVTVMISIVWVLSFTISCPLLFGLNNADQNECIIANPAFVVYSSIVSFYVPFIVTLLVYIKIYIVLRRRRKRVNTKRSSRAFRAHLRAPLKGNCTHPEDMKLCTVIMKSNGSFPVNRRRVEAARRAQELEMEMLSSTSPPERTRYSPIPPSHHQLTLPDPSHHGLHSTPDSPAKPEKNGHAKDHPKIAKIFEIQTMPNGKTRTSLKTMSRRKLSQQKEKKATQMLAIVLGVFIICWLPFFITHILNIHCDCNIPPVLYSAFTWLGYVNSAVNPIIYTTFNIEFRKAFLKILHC
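Agonist mode: compounds alone added to overnight-plated D2 PathHunter cells for 90 min at 37 C, with 57 uM final dopamine (EC100) defining full response. Beta-arrestin recruitment detected by chemiluminescent reagent, read after 1 h at ambient temperature.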
PINK1 expr mod: changes PINK1 expression | PINK1 immunofluorescence, high-content cytometry, 24 h | Potency, µM (top dose mostly 76.6 µM), for the others: at the top dose activation (PINK1 increase), hits mostly activators | 0.2% of 410,000 active | AID 624263; active = well fitted activation curve with a large enough effect; inconclusive = small, poorly fitted or top-dose-only effect; inactive = flat fitted curve, though single readings scatter; cell line not stated here;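 note: potency is the fitted concentration of half-maximal effect; % of control where 0% means no effect; nearly all actives have a fitted effect of over 65% in size; a mitochondrial uncoupler was the plate control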
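Cells are seeded, rested 12 hours, then given compound at five concentrations or DMSO for 24 hours. After fixation, blocking and antibody staining, PINK1 amount and mitochondrial localization are scored; CCCP serves as control.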
D2 potentiator: human D2 receptor positive allosteric modulation | potentiation, % (concentration not given with the values) | AID 624464 | P14416 | DiscoveRx D2 beta-arrestin cells, luminescence, 90 min; 100% = 57 uM dopamine signal | 0.23% of 360,000 active; active = potentiation of 50% or more; inconclusive = 30% to 50%; inactive = 30% or less;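 note: compound concentration not given in the record; tested on top of an EC20 dose of dopamine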
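D2 cells co-treated with compound plus 50 nM dopamine (EC20) for 90 min at 37 deg C to detect potentiation. Beta-arrestin recruitment was read as enzyme-fragment luminescence after 1 h at ambient temperature. Full response was set by 57 uM dopamine.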
CtBP-E1A inh: inhibitors of CtBP/E1A interaction | 0.49% of 340,000 active | AID 651724 | activity change, % (no concentration beside the values) | AlphaScreen GST-E1A/His-CtBP binding, 1536-well; active compounds read low; control for the full effect not named in the record; in the data active means activity change below about -65%; inconclusive means about -30% to -65%; inactive means above about -30%; note: % is set by controls: 0 for no effect and ±100 for the full control effect
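Steps: dispense buffer (Tris pH 8.0, NaCl 300 mM, TCEP 1 mM, BSA, Tween 20); add 5X protein mix (GST-E1A, His-CtBP, 125 nM each); pin 23 nL compound; 2 h at 37 °C, dark; add 5X beads (50 ug/mL); 1 h; read.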
TRPV1 PAM: human TRPV1 potentiation | TRPV1-expressing cells, Fluo-8 calcium influx, capsaicin EC20 potentiation; host cell line not named in the record; control for the full effect not named in the record | potentiation, % at 8.33 µM | Q8NER1 | 0.02% of 320,000 active; active means potentiation above 80%; inconclusive means 30% to 80%; inactive means below 30%; note: 0% is about no effect
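TRPV1-expressing cells were cultured overnight at 35.5C and loaded with Fluo-8 calcium dye for 40 to 90 min at room temperature. After a 10 s baseline, compound was added and calcium influx was read kinetically for 3 min (ex 480/em 520 nm).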
Six1-Eya2 inh: Six1/Eya2 interaction inhibition; Q15475+O00167; 0.56% of 360,000 active; AID 651725; AlphaScreen GST-Six1/His-Eya2 binding, biochemical; active compounds read low; control for the full effect not named in the record; activity change, % (concentration not given with the values); in the data active = activity change below about -65%; inconclusive = about -30% to -65%; inactive = above about -30%; note: % is set by controls: 0 for no effect and ±100 for the full control effect
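AlphaScreen with GST-Six1 and His-Eya2 (5X mix: 250 nM and 500 nM), glutathione donor and nickel acceptor beads; buffer 50 mM Tris pH 8.0, 300 mM NaCl, 1 mM TCEP; 1 h at 37 C in the dark.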
Sfp inh: blocks B. subtilis Sfp PPTase activity. 3.5% of 310,000 active. Q9F4F7. Potency, µM, for inactives: max response, negative = inhibition, most hits filed as inhibitors. Biochemical Sfp PPTase activity, qHTS; active = well fitted inhibition curve with a large enough effect; inconclusive = small, poorly fitted or top-dose-only effect, or another doubt; inactive = no such curve, though single readings can be large or run the other way;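 note: the enzyme is Sfp with the accession as filed and its product quenches rhodamine fluorescence; potency is the fitted concentration of half-maximal effect; 0% = enzyme reaction without inhibitor and -100% = no enzyme wells; top concentration of the series not given in the record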
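Reaction rates are the 30-min fluorescence difference (ex 525, em 598 nm) in wells containing 15 nM Sfp, 5 uM rhodamine-CoA and 12.5 uM BHQ-2-YbbR at pH 7.6 with 10 mM MgCl2.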
* hit, by the source's call; ? = inconclusive; / = not tested or not shown; [ ] = dose if it differs, or a comment.

item	Molecule	D2 ag	PINK1 expr mod	D2 potentiator	CtBP-E1A inh	TRPV1 PAM	Six1-Eya2 inh	Sfp inh
1	CC(=O)c1c(C)nc(-c2ccccc2)nc1N	2.1	1.2%	-7.6	/	5.8	-1.8	-6.6%
2	CCC(=O)c1ccc(OCC(O)CN2CCN(c3ccc(F)cc3)CC2)cc1 (stereo not given)	0.4	-1.5%	-8.0	2.4	-3.2	0.9	12.2%
3	CNc1oc(Cc2ccccc2)nc1S(=O)(=O)c1ccc(Cl)cc1	-2.4	/	-8.0	11.5	-5.6	2.1	-22.9%
4	Cc1ccc2c(c1)c(-c1csc(N)n1)c(C)n2C	-2.1	0.5%	-12.3	0.3	10.8	-18.3	1.3%
5	CCN1C(=O)N(CC)C(O)(c2ccccc2)C1(O)c1ccccc1 (stereo not given)	-0.7	1.3%	-5.5	-0.8	-9.9	17.1	-5.2%
6	Cc1c(C(=O)N2CCCCCC2)nnn1-c1nonc1N	-2.9	3.0%	-21.0	5.4	-4.0	2.5	5.9%
7	CS(=O)(=O)N(CC(=O)N1CCc2ccccc2C1)c1ccccc1Br	-4.0	1.7%	-3.6	12.3	-5.7	-0.4	11.6%
8	O=C(OCc1ccccc1)N1CCC2CC1c1cc(N3CCCCC3)ccc12 (stereo not given)	-2.3	0.3%	/	?	/	?	/
9	Nc1nonc1C(=O)N/N=C/c1ccc(Br)o1	-4.1	-0.3%	0.6	?	/	-12.7	-14.8%
10	O=C(Cn1cncn1)NCCC(c1ccccc1)c1ccccc1	-3.4	1.6%	-7.0	0.4	-14.3	3.3	7.4%
11	Cc1cc(Nc2nn(C)c(N)c2C#N)ccc1F	0.6	-0.9%	0.0	/	4.8	11.6	5.0%
12	O=C(CN(C(=O)c1csnn1)c1ccc(F)c(Cl)c1)NCc1ccccc1	-1.6	0.3%	-7.9	7.5	-9.1	9.0	3.3%
13	O=C(O)CCCC(=O)Nc1nncs1	7.1	0.1%	-41.0	/	-7.4	3.9	28.6%
14	Cc1ccc(CC(=O)NC2CCN(Cc3ccccc3)CC2)cc1	-2.1	0.3%	-11.6	-2.2	-6.8	-8.7	-15.5%
15	CCOc1ccc(NC(=O)CN(C)C(=O)CCC2CCCCC2)cc1OCC	1.8	0.7%	-16.4	-0.5	16.3	-2.6	/
16	COc1cccc(/C=C/C(=O)c2ccc[nH]2)c1	-8.5	-0.1%	-2.1	-3.2	-24.6	2.2	-10.1%
17	C/C(CC(=O)Nc1cccc2c1CCCC2)=N\NC(=O)COc1ccccc1	-5.8	-0.8%	-5.0	3.5	15.4	1.8	-3.4%
18	O=C(c1ccc2c(c1)OCO2)N1CCC2(CC1)Oc1ccc(F)cc1C(=O)C21CC(c2ccccc2)=NO1 (stereo not given)	-2.5	1.2%	-10.0	/	4.7	-3.2	5.2%
19	CCOC(=O)C(/C(N)=N/C(=O)Nc1ccccc1)=C(\C)O	-0.7	-1.5%[38.3 µM]	3.4	0.4	-13.2	0.5	8.9%
20	CCOc1ccccc1OCCn1nnc2ccccc21	-0.9	1.4%	-7.9	-0.4	10.4	5.5	6.8%

Gathered by group, those above with a Cl atom.
item	Molecule	D2 ag	PINK1 expr mod	D2 potentiator	CtBP-E1A inh	TRPV1 PAM	Six1-Eya2 inh	Sfp inh
3	CNc1oc(Cc2ccccc2)nc1S(=O)(=O)c1ccc(Cl)cc1	-2.4	/	-8.0	11.5	-5.6	2.1	-22.9%
12	O=C(CN(C(=O)c1csnn1)c1ccc(F)c(Cl)c1)NCc1ccccc1	-1.6	0.3%	-7.9	7.5	-9.1	9.0	3.3%

Going on with the list.
item	Molecule	D2 ag	PINK1 expr mod	D2 potentiator	CtBP-E1A inh	TRPV1 PAM	Six1-Eya2 inh	Sfp inh
21	Cc1c(Cl)cccc1NC(=O)CSc1nnnn1C	-1.9	1.6%	15.9	1.5	/	4.4	/
22	COc1ccc(CCNC(=O)C2CC(c3ccccc3C(F)(F)F)=NO2)cc1 (stereo not given)	2.5	-0.1%	-0.3	/	14.9	3.6	7.4%
23	CCCOc1ccc(CSCCNC(=S)Nc2ccccc2)cc1	3.7	?	8.6	-5.7	-13.9	-19.0	16.4%
24	COc1cccc(C2=NN(C(C)=O)C(c3cccs3)C2)c1 (stereo not given)	0.7	1.8%	-5.4	-0.5	3.4	1.8	-0.8%
25	CCC(/C=N/NC(=O)CCCCC(=O)N/N=C/C(CC)CC)CC	1.4	2.2%	2.2	-20.5	-4.4	5.5	7.7%
26	COc1ccc(C(=O)COC(=O)c2ccc([N+](=O)[O-])s2)cc1OC	?	0.3%	6.5	-24.8	10.1	-7.4	/
27	Cc1ccc(-c2[nH]nc(N)c2N=Nc2cccc(Cl)c2C)cc1	-0.4	-1.9%	-1.3	-18.9	-5.5	-28.3	9.3%
28	COCCCNC(=O)c1cc(C(=O)Cc2ccccc2)c[nH]1	2.7	2.9%	-1.1	8.0	12.4	2.4	18.1%
29	Cc1ccc(OCc2cc(C(=O)N(C)Cc3cnn(-c4ccccc4C)c3)no2)cn1	3.8	0.2%	-1.1	-2.2	11.1	5.8	0.7%
30	O=C(Nc1ccc2c(c1)OCCO2)c1cc(-c2ccccn2)nc2ccc(Br)cc12	0.5	?	-2.3	-8.5	3.8	4.6	-14.8%

3 compounds from above, sorted by the value under Sfp inh, low to high:
No.	Structure	Sfp inh
30	O=C(Nc1ccc2c(c1)OCCO2)c1cc(-c2ccccn2)nc2ccc(Br)cc12	-14.8%
24	COc1cccc(C2=NN(C(C)=O)C(c3cccs3)C2)c1 (stereo not given)	-0.8%
23	CCCOc1ccc(CSCCNC(=S)Nc2ccccc2)cc1	16.4%

More records follow:
item	Molecule	D2 ag	PINK1 expr mod	D2 potentiator	CtBP-E1A inh	TRPV1 PAM	Six1-Eya2 inh	Sfp inh
31	Cc1ccc(S(=O)(=O)NCC(=O)NCC(=O)OCc2c(F)cccc2Cl)cc1	3.2	0.7%	-0.2	-16.8	-2.2	0.1	?
32	C/C=C\C=C\C(=O)N1CC2(CC(c3cccc(NC(=O)CC(c4ccccc4)c4ccccc4)c3)=NO2)C[C@H]1C(N)=O (stereo not given in full)	0.4	5.7%	7.9	/	?	-8.5	44.7µM*
33	Cc1sc2ncnc(Nc3ccc(O)cc3)c2c1C	-0.2	-1.1%	-5.9	0.0	/	11.9	-10.8%
34	O=C(c1ccc(N2CCN(C(=O)c3ccccc3Br)CC2)cc1)c1cccc(F)c1	3.0	-0.6%	8.6	10.2	5.9	7.8	11.1%
35	CCOC(=O)C1=C(C)c2ccccc2N(C(=O)OC)C1(C)C(=O)OCC (stereo not given)	-0.5	1.4%	/	-11.5	/	-16.6	3.55µM*
36	c1ccc(Cc2c(-c3ccccc3)nc3c4ccccc4ccn23)cc1	-8.5	0.7%	-4.0	4.5	/	-1.8	/
37	O=C(CNS(=O)(=O)c1ccc(F)cc1)N1CCOCC1	0.4	2.1%	-0.3	5.6	-1.0	1.4	8.7%
38	CCOc1ccc(OCC)c(NC(=O)CN2CCN(CC)CC2)c1	-1.5	0.1%	-13.8	2.1	-3.6	-1.0	-3.3%
39	COc1ccc(NC(=O)CCC(=O)N2CCOCC2)c([N+](=O)[O-])c1	-13.8	-1.1%	-17.1	-1.3	-8.5	-1.1	15.1%
40	Cc1cccc(N2CCN(C(=O)CNC(=O)c3ccccc3)CC2)c1C	0.2	0.7%	-6.0	-8.2	-10.4	6.2	8.3%
41	CCN1CCN(C(=O)c2cn(CC)c3ccc(S(=O)(=O)N(C)C)cc3c2=O)CC1	-2.8	1.1%	-0.9	2.1	-9.4	-3.2	-16.6%
42	CCN1/C(=C2\C(=O)N(C)C(=S)N2C)C=Cc2cc(C)ccc21	-4.8	6.0%	-3.8	-6.7	15.4	-17.3	44.7µM*
43	COc1ccc(-c2c(C(F)(F)F)nn(C)c2NC(=O)CSCC(=O)O)cc1	-1.7	-1.1%	-7.4	1.7	13.6	5.7	18.6%
44	CC(OC(=O)c1cccc(Cl)c1)C(=O)NC1CCCCC1C (stereo not given)	-1.7	8.1%	-10.3	3.8	-4.3	-1.8	4.6%
45	O=C(O)COc1ccccc1/C=N/NC(=O)c1cc(-c2ccc(Cl)cc2)nc2ccccc12	-2.0	-0.3%	0.4	-81.0*	-5.6	-80.2*	-8.2%
46	O=S(=O)(c1ccc(Cl)s1)N1CCC(Cc2ccccc2)CC1	-3.3	1.8%[38.3 µM]	-20.8	54.1	-3.5	31.3	?
47	Cn1c(SCCOc2ccccc2F)nc2ccccc2c1=O	-1.8	2.0%	-5.4	-8.0	-14.5	-24.4	-13.1%
48	Cc1ccc(NS(=O)(=O)c2c(C)[nH]c(C)c2C(=O)N2CCCCC2)c(Br)c1	-1.5	-0.6%	-3.3	5.3	1.4	-0.4	22.9%
49	O=C(CN1CCCC1)Nc1ccc(-c2nc3cc(NC(=O)CN4CCCC4)ccc3o2)cc1	-2.8	-2.2%	-2.6	-0.2	2.2	-0.6	14.9%
50	CCCN(C(=O)CSc1nc2cc(S(=O)(=O)N(CC)CC)ccc2o1)C1CCS(=O)(=O)C1 (stereo not given)	9.0	-2.7%	9.7	-5.0	-2.1	1.2	/
51	Cc1cc(N2C(=O)C(O)=C(C(=O)c3ccc(C)o3)C2c2cccs2)no1 (stereo not given)	3.5	-1.4%	-6.0	4.2	14.3	2.4	-17.0%
52	COc1ccc(N2C(=O)C(CN3CCN(C)CC3)C2c2ccccc2)cc1 (stereo not given)	-0.6	-0.9%	-22.8	/	-4.6	-1.1	17.1%
53	Cc1cc(C)c(C)c(S(=O)(=O)N[C@@H](C)C(=O)OC(C)C(=O)NC(N)=O)c1C (stereo not given in full)	-2.3	0.2%	-6.2	6.4	-9.1	1.8	9.4%
54	COc1cc(/C=N/n2cnnc2)ccc1OC(=O)c1ccco1	-0.9	0.5%	-0.3	-0.6	13.4	9.5	14.8%
55	COP(=O)(/C=C/c1ccccc1)C(O)c1ccc(F)cc1 (stereo not given)	0.7	0.4%	-7.8	-0.9	-7.6	11.4	11.5%
56	Cc1nc(C#N)c(N/N=C/c2cccc(Cl)c2)o1	3.2	?	-1.6	-1.0	6.4	-3.3	-6.3%
57	CSc1ccccc1NC(=O)CN(C)CC(=O)Nc1cc(C)ccc1C	-0.2	0.5%	-5.5	0.0	-1.1	1.3	-7.2%
58	CCc1cc[n+](CC(=O)Nc2ccc(Cl)cc2Cl)cc1	-3.3	-1.0%	-14.7	-1.3	-3.0	31.4	3.4%
